RGS16-Gao: regulators of human RGS16-Galphao interaction; bead-based flow cytometry RGS16-Galphao binding, fluorescence; actives lie on both sides; binding response (% of control), % at 10 µM; 220,000 compounds, 0.38% hits; AID 1441;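 active = below 25% or above 175%, edge rows of some plates excepted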;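 note: Galphao activated by GDP with aluminum fluoride before binding; 100% = wells without compound and 0% = beads without RGS; some results beyond the cut were filed as inactive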
PKD1 kinase inh: PKD1 (human) kinase inhibition. Q15139. AID 797. 200,000 compounds, 0.056% hits. inhibition, %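 (about 10 µM by stock and volumes)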. PKD1 kinase fluorescence polarization assay;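 active = inhibition of 50% or more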;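 note: controls were vehicle for no effect and a reference inhibitor for full effect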
Target sequence (Q15139 whole entry, looked up): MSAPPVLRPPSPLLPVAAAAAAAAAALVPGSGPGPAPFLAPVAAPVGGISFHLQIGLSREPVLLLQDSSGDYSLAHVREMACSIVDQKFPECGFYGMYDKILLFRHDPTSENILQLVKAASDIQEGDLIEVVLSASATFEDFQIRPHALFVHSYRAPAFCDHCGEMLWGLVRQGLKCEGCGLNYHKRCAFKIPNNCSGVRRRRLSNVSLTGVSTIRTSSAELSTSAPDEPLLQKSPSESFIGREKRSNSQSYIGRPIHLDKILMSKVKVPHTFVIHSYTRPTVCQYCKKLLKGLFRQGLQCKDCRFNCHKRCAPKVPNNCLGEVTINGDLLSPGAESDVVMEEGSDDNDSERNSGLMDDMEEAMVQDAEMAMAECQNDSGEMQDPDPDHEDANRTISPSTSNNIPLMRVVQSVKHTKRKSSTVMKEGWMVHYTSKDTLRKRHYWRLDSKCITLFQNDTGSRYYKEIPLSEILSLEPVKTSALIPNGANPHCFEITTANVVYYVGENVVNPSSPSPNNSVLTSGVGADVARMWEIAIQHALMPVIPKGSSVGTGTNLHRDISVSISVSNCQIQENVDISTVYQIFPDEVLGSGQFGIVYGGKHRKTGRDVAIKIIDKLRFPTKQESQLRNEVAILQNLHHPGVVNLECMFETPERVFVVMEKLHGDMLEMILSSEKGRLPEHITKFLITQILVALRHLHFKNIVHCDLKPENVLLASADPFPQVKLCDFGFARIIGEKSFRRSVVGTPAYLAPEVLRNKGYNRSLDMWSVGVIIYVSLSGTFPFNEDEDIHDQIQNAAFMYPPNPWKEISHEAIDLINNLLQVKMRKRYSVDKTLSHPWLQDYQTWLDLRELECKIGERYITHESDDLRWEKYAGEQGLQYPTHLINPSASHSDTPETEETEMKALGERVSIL
HSV replic up: HSV replication enhancement. HSV replication augmentation in cells, fold increase. maximum fold increase. 220,000 compounds, 0.005% hits;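 active = peak rise of 1.5-fold or more in the series; tested in PC3 cells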;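 note: first round at 10 µM; read as green reporter fluorescence; hits show the peak of a series up to 25 µM; 1 = signal of infected wells without compound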
Insulin prom inh: TRM-6 insulin promoter activity inhibition; TRM-6 cells (human fetal islet line), insulin promoter-eGFP reporter, imaging; reporter expression induced with tamoxifen; inhibition, % at 2 µM; 130,000 compounds, 0.9% hits;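 active = inhibition above the mean plus 3 SD, with well images judged a real hit on visual review, cut at about 60% in these data, passing the limit was not always enough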
GALR2 ag: agonists of human galanin receptor 2 (GALR2). GALR2-expressing cells, agonist activation read-out. activation, %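 (tested at 5 µM)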. AID 803. 140,000 compounds, 0.48% hits;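 active = above mean plus 3 SD of all compounds, about 5% in these data, not always enough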;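 note: 0% = vehicle buffer wells and 100% = reference agonist at full effect; tested in CHO reporter cells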
Insulin prom inh cell count: second read-out of Insulin prom inh, no call of its own (marks repeat the call); normalized cell count, %; measured here: cell count, toxicity; reference of the scale not given here;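 cells exposed to compound for 48 h; stained nuclei by imaging scaled within each plate; lower means fewer cells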
HSV replic up primary fold: recorded beside HSV replic up, whose call it bears; fold increase; compound at 10 µM; measured here: primary screen fold increase 10 uM; tested in PC3 cells;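 GFP signal in the first replicate; 1 = infected wells without compound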
An asterisk follows results filed as active; i = inactive; · = no result given.

Fields – RGS16-Gao	PKD1 kinase inh	HSV replic up	HSV replic up primary fold	Insulin prom inh	Insulin prom inh cell count	GALR2 ag
- Fc1ccccc1CN(CCN1CCOCC1)C(=S)Nc1ccccc1Cl
→ 108	-2	i	0.87	0	181	·
- Cc1cccc(NC(=S)N/N=C/c2ccc([N+](=O)[O-])s2)c1
→ 94	-7	i	1.1	-48	142	-4.3
- COc1ccc(-c2cn(-c3ccc(C)cc3)c(=O)n2CC(=O)Nc2cccc(F)c2)cc1
→ 100	1	i	0.94	0	132	15*
- O=C(c1ccc(Cl)c([N+](=O)[O-])c1)N(Cc1ccccc1)C1CCS(=O)(=O)C1 (stereo not given)
→ 102	-2	i	0.87	-6	84	-1.8
- COc1ccc(C=NC(CO)C(O)c2ccc([N+](=O)[O-])cc2)cc1 (stereo not given)
→ 94	-9	i	0.91	-27	98	-3.2
- Cc1ccc(S(=O)(=O)N2CCOCC2)cc1NC(=O)CNCC1CCCCC1
→ 101	1	i	1	·	·	·
- CCc1noc2c1/C(=N\O)CC(c1ccccc1)C2 (stereo not given)
→ 103	-9	i	0.96	·	·	-1.9
- C=CCn1c(N)c(S(=O)(=O)c2cccs2)c2nc3ccccc3nc21
→ 90	1	i	1	-44	91	2.2
- Cc1ccc(C2C(C#N)=C(N)Oc3c2oc(CO)cc3=O)o1 (stereo not given)
→ 102	·	i	1	·	·	·
- COc1ccc(-c2cc(C(=O)OC(C)C(=O)Nc3c(C)n(C)n(-c4ccccc4)c3=O)c3ccccc3n2)cc1 (stereo not given)
→ 104	1	i	0.95	·	·	0.5
- O=c1c2c(nc3nc(CCc4ccccc4)[nH]n13)CCC2
→ 101	-8	i	0.95	-19	138	-0.3
- COc1cc(OC)c(/C=N/NC(=O)Cn2nc([N+](=O)[O-])cc2C)c(OC)c1
→ 110	·	i	0.92	·	·	·
- O=C(/C=C/c1ccco1)Nc1ccc(Oc2ccccc2)cc1
→ 87	5	i	0.63	-47	55	0.2
- COc1ccc(S(=O)(=O)N(C)CC(=O)Nc2ccc(C)cc2)cc1OC
→ 100	-2	i	0.94	-24	102	·
- CCc1c(C#N)c(SCCC(=O)Nc2cccc(OC)c2)nc2c1C(=O)CC(C)(C)C2
→ 103	1	i	0.89	-32	204	-0.5
- O=C(CCCc1ccccc1)Nc1cccnc1Cl
→ 105	-4	i	1	18	35	·
- COc1cccc(-n2nnnc2SCC(=O)NCCc2ccccc2)c1
→ 113	-4	i	1	-58	62	-0.1
- NC(=O)C(=O)NN=C1C2CC3CC(C2)CC1C3
→ 99	-2	i	0.94	·	·	·
- c1ccc(CSCc2nc3ccccc3[nH]2)cc1
→ 31	6	i	1	76*	147*	-0.2
- O=S(=O)(c1ccc(F)cc1)N1CCC(N2CCN(c3ccccc3)CC2)CC1
→ ·	-9	·	·	23	112	-3.4
- CCCOc1ccc(C2c3c(oc4cc(C)c(C)cc4c3=O)C(=O)N2CCCN(C)C)cc1 (stereo not given)
→ 107	-1	i	0.95	·	·	-1.3
- CCN(CC)/C(N)=N/c1nc(C)cc(C)n1
→ 100	-5	i	1.1	·	·	·
- COc1ccc(CNc2ccccc2SC)cc1OC
→ 103	-6	i	0.71	-16	122	-2.0
- COc1ccc(CCNC(=O)Cn2cnc3c(cnn3C(C)(C)C)c2=O)cc1OC
→ 100	-10	i	1	-108	127	-1.6
- Cc1cc(=S)c2ccccc2[nH]1
→ 98	·	i	1.1	·	·	·
- CSc1nnnn1-c1ccc(C(=O)OCC(=O)N2CCOCC2)cc1
→ 98	-15	i	0.85	-21	88	-2.0
- CC(C)C[C@H](NS(=O)(=O)c1ccc(Br)cc1)C(=O)O
→ 101	-4	i	0.64	-34	94	0.1
- CCN1CCN(Cc2ccc(NC(=O)c3ccc(C)c(NC(=O)c4nccnc4N)c3)cc2C(F)(F)F)CC1
→ 100	·	i	0.48	·	·	·
- Cc1ccccc1NC(=O)COc1ccc(Br)cc1CNCCCO
→ 99	-3	i	0.74	-79	108	·
- O=C(NCC1CCCO1)c1ccc(CNS(=O)(=O)c2cccc(Cl)c2)cc1 (stereo not given)
→ 102	-6	i	0.87	·	·	·

Next section, overlapping the part above by 3 compounds.
Fields – RGS16-Gao	PKD1 kinase inh	HSV replic up	HSV replic up primary fold	Insulin prom inh	Insulin prom inh cell count	GALR2 ag
- CCN1CCN(Cc2ccc(NC(=O)c3ccc(C)c(NC(=O)c4nccnc4N)c3)cc2C(F)(F)F)CC1
→ 100	·	i	0.48	·	·	·
- Cc1ccccc1NC(=O)COc1ccc(Br)cc1CNCCCO
→ 99	-3	i	0.74	-79	108	·
- O=C(NCC1CCCO1)c1ccc(CNS(=O)(=O)c2cccc(Cl)c2)cc1 (stereo not given)
→ 102	-6	i	0.87	·	·	·
- COC(=O)Cc1nnc(NC(=O)C(C)C)s1
→ 127	-3	i	0.87	19	59	-1.4
- O=C(CN1CCOCC1)N/N=C/c1cc2ccccc2nc1Cl
→ 126	-13	i	0.91	22	128	-1.8
- O=C(c1ccco1)N1CCN=C1SCc1cccnc1
→ 103	2	i	1	·	·	-1.2
- CCC(=O)Nc1cc2c(cc1C(C)=O)OCCO2
→ 100	3	i	0.89	29	119	-0.7
- CC(=O)C(Cl)C(=O)Nc1ccccc1 (stereo not given)
→ 85	2	i	1	·	·	·
- CCOC(=O)c1c(C)[nH]c(C(=O)COC(=O)CNC(=O)c2ccc(Br)cc2)c1C
→ 103	1	i	0.89	32	131	-0.6
- CCOc1ccc(C(=O)COC(C)=O)cc1
→ 99	-16	i	0.99	43	119	-1.8
- O=C(Nc1nc2ccc(Cl)cc2s1)c1ccco1
→ 96	-3	i	1.1	-11	94	-2.6
- Fc1ccc2nc(N3CCCC3)sc2c1
→ 100	7	i	0.85	·	·	·
- COCc1cc(=O)n2c(-c3ccccc3OC)n[nH]c2n1
→ 77	-2	i	0.96	-144	41	-0.5
- C=CCn1c(SCC(=O)Nc2ccc(C(=O)OCC)cc2)nnc1-c1sc(N)nc1C
→ 97	0	i	1	38	92	-1.0
- COc1ccc2c(c1)CCc1c(C(=O)Nc3c(C)n(C)n(-c4ccccc4)c3=O)noc1-2
→ 100	-1	i	0.88	·	·	-4.2
- Cc1ccc(-c2nc(N)n(C(=O)c3cccnc3)n2)cc1
→ 86	4	i	0.99	-43	117	-2.3
- O=C1C2N=NN(CC(=O)N3N=C(c4cccc5ccccc45)CC3c3ccccc3)C2C(=O)N1c1ccccc1 (stereo not given)
→ 57	-4	i	0.98	38	138	-2.3
- COCCCNC(=O)COc1ccc(Cl)c(C)c1
→ 101	-5	i	0.9	·	·	-1.6
- CNc1cc(CSC)nc(SCc2ccc(Cl)c(Cl)c2)n1
→ 102	-2	i	1.6	-30	86	1.0
- CC(NS(C)(=O)=O)C(c1cccs1)N1CCN(Cc2ccccc2)CC1 (stereo not given)
→ 99	-7	i	0.94	0	59	-0.7
- O=C(c1ccccc1NS(=O)(=O)c1ccccc1[N+](=O)[O-])N1CCOCC1
→ 99	-1	i	1.1	·	·	-1.1
- O=C(NCc1cccnc1)Nc1cccc(NC(=O)NCc2cccnc2)c1
→ 103	-15	i	0.69	·	·	-1.4
- O=C(C1CC1)N1N=C(c2ccncc2)CC1(O)C(F)(F)F (stereo not given)
→ 113	-2	i	0.97	·	·	·
- O=c1c2ccccc2nc2n1CCN2Cc1ccc(Cl)cc1
→ 77	-11	i	0.86	-31	69	-2.1
- CCc1nn(C(C)C(=O)N2CCN(Cc3ccccc3)CC2)c(=O)c2cc3occc3n12 (stereo not given)
→ 101	-1	i	0.96	19	72	-0.5
- CC1CCc2c(sc3ncnc(N4CCN(S(=O)(=O)c5cccc6nonc56)CC4)c23)C1 (stereo not given)
→ ·	-1	·	·	29	140	-1.2
- Cc1ccccc1/C(N)=N/OC(=O)/C=C/c1ccccc1
→ 115	-5	i	0.88	18	71	-0.9
- COc1ccc(S(=O)(=O)NC(C)CCc2ccccc2)cc1 (stereo not given)
→ 102	-6	i	1	·	·	·
- CCOc1ccc2nc(C)cc(C(=O)O)c2c1
→ 105	2	i	0.84	·	·	-1.0
- Nc1cccc2c1C(=O)N(C(=O)c1cccc(S(=O)(=O)N3CCCCCC3)c1)C2=O
→ 83	-2	i	1.1	-61	104	-4.5
- Cc1ccc(-n2c(C)cc(/C=C3\NC(=O)NC3=O)c2C)c(C)c1
→ 102	0	i	0.95	39	85	0.8
- COC(=O)CSc1nc2sc3c(c2c(=O)n1C1CCCCC1)CCN(C)C3
→ 96	3	·	·	-29	123	-0.3
- N#Cc1nc(-c2ccccc2F)oc1NCCc1ccccn1
→ 101	·	i	1	·	·	·
- OCCN(Cc1ccccc1)CC1CCCCC1
→ 96	5	i	0.77	·	·	-2.4
- CCNc1nc(NCC)nc(-n2nc(C)cc2C)n1
→ 104	2	i	0.88	18	126	-2.2
- Cc1cccc(C)c1OCC(O)CNC(C)C (stereo not given)
→ 37	-15	i	0.94	42	63	-1.0
- CCN(C(=O)CSc1nnc(-c2ccccc2Cl)n1C1CCCC1)C1CCS(=O)(=O)C1 (stereo not given)
→ 845	6	i	1.1	-58	103	-1.8
- CCOC(=O)c1sc2nc3c(cc2c1N)C(=O)CC(C)(C)C3
→ 107	-14	i	0.88	50	102	-0.1
- CCOC(=O)C(/C(C)=N/NC(=O)C1CC1c1ccccc1)C(C)C (stereo not given)
→ 105	6	i	0.98	38	93	-0.4
- Cc1cc(C)cc(NC(=O)c2ccc(S(=O)(=O)C(F)F)cc2)c1
→ 102	-2	i	1.1	·	·	-0.1
- CSc1nc2nc(-c3ccccc3)cc(C(F)(F)F)n2n1
→ 98	14	i	0.98	35	105	-1.4
- O=C(COC(=O)COc1ccccc1[N+](=O)[O-])NC1CCCC1
→ 100	-3	i	0.91	·	·	-0.1
- COc1ccc(NC(=O)CSc2nnnn2Cc2ccccc2)cc1
→ 104	4	i	0.87	·	·	·
- C/C(=N\NC(=O)c1ccc(OC2CCCC2)cc1)c1ccc(C)s1
→ 102	-1	i	0.91	-24	82	0.6
- Cc1ccc(CC2C(=O)N(c3ccc(C)cc3)C(=O)C2C)cc1 (stereo not given)
→ 103	-8	i	0.96	-150	92	·
- CC(C)(C)OC(=O)NCCc1nnc(SCc2ccccc2)o1
→ 108	·	i	1	·	·	·
- CCOc1cccc(-c2nnc3sc(-c4ccco4)nn23)c1
→ 108	0	i	0.86	·	·	-1.1
- COc1ccc(COC(=O)N/N=C(\C)CC(=O)Nc2c(C)cc(C)cc2C)cc1
→ 102	1	·	·	·	·	-0.5
- Cc1cccc(C)c1NC(=O)c1ccc(-c2ccc(Cl)cc2Cl)o1
→ 104	1	i	0.78	65	15	-1.3
- CCc1cccc(C)c1NC(=S)N(CCN(C)C)Cc1cccs1
→ 101	5	i	1	-13	68	·
- COc1cccc(CNC(=O)CN(c2cc(C)cc(C)c2)S(=O)(=O)c2c(C)noc2C)c1
→ 103	-4	i	0.97	·	·	-0.9
- Cc1ncc([N+](=O)[O-])n1CC(O)CCl (stereo not given)
→ 106	-1	i	0.81	-29	143	-0.4
- CCCOc1ccc(CC(=O)NCC2(c3ccccc3)CCOCC2)cc1OC
→ 102	-8	i	0.96	-27	157	0.3
- CC(C)(C)c1ccccc1OCCCCCNCCO
→ 104	4	i	0.74	-69	121	0.6
- Cc1ccc(S(=O)(=O)N2CCOCC2)cc1C(=O)Nc1nc(-c2cccnc2)cs1
→ 95	0	i	0.88	·	·	-1.2
- COC(=O)c1ccccc1NC(=O)CN1C(=O)c2ccccc2S1(=O)=O
→ 80	2	i	1	60	119	-3.7
- CCOc1ccc(N=c2scc(-c3ccccc3)n2CCO)cc1
→ 125	-1	i	0.87	-42	45	-2.2
- CCCOC1CCCN(C(=O)c2cc(Cl)c(Cl)cc2C(=O)O)C1 (stereo not given)
→ 108	18	i	0.96	·	·	-1.7
- CN(c1ccccc1)S(=O)(=O)c1cccc(NC(=O)Cn2cnc3c2c(=O)n(C)c(=O)n3C)c1
→ 96	-6	i	1	·	·	-0.7
- CCOc1ccc(N2CC(C(=O)Nc3ccccc3OC)CC2=O)cc1 (stereo not given)
→ 134	2	i	1.1	·	·	-0.6
- CC(C)N=C(NC#N)SCc1ccc(F)cc1
→ 104	10	i	1.1	·	·	-1.8
- O=C(Nc1ccccc1F)c1ccc(OCc2ccccc2)cc1
→ 99	-7	·	·	-25	108	0.3
- CC1CCCC(NC(=O)CSC2CCCCC2)C1C (stereo not given)
→ 76	-3	i	1.1	-30	43	·

Three of the entries above in order of their number in RGS16-Gao, low to high:
SMILES,RGS16-Gao
COc1cccc(CNC(=O)CN(c2cc(C)cc(C)c2)S(=O)(=O)c2c(C)noc2C)c1,103
Cc1cccc(C)c1NC(=O)c1ccc(-c2ccc(Cl)cc2Cl)o1,104
CC(C)(C)OC(=O)NCCc1nnc(SCc2ccccc2)o1,108

Screening data from PubChem.
